# Screening results as filed in PubChem.
# H5N1 CPE: MDCK cell protection from H5N1 avian flu; cytopathic effect, luminescence, 72 h; active compounds read high; no value below 0 was filed and about half of the inactive calls have no number; reference of the scale not given here; actives 0.07% (n = 96,000); AID 740, 2007; inhibition, % at 50 µM; in the data active means inhibition above about 25%
# The depositor's hits bear a star; i = inactive.
Compound | H5N1 CPE
O=C(C1CCN(C2CC(=O)N(c3cccc(Cl)c3)C2=O)CC1)N1CCCCCC1 (stereo unspecified) | i
O=C(Nc1ncc(Cc2ccccc2)s1)c1cccs1 | 0.0
Cc1ccc(Nc2nc(N)nc(CN3CCN(C)CC3)n2)cc1 | 1.0
O=C(O)CCc1nnc2n(Cc3ccc(F)cc3)c(=O)c3ccccc3n12 | 1.7
O=C(OCC(F)(F)C(F)F)c1ccccc1C(=O)Oc1ccc(F)cc1F | 6.7
O=C(c1cccs1)N(Cc1ccco1)Cc1cc2ccccc2[nH]c1=O | 2.4
CSc1nc2nc3c(c(=O)n2[nH]1)CCCC3 | i
CC1Cc2cc(/C(O)=C3/C(=O)C(=O)N(CCCN(C)C)C3c3ccncc3)ccc2O1 (stereo unspecified) | 1.3
CCC12CN(C(=O)c3ccc(OC)cc3)CC(CC)(CN(C(=O)c3ccc(OC)cc3)C1)C2=O | i
Cc1c(C(=O)Nc2ccccc2)sc2nc(-c3ccccc3)cn12 | 0.6
O=C(N1CCOCC1)N(CCN1CCOCC1)Cc1cccc2ccccc12 | i
NS(=O)(=O)c1ccc(NC(=O)C2CCCN(S(=O)(=O)c3ccc(F)cc3)C2)cc1 (stereo unspecified) | i
COc1ccc(-n2nnnc2SCC(=O)N2CCOCC2)cc1 | 0.4
C1COCCNCCOCCOCCN1 | i
CS(=O)(=O)N1CCCC(C(=O)NCCCN2CCN(Cc3ccccc3)CC2)C1 (stereo unspecified) | 0.3
O=C(O)c1ccc(N2CCCCCC2)c(N2C(=O)c3ccccc3C2=O)c1 | i
Cc1cc(C)c(S(=O)(=O)Nc2ccc(OCC(=O)O)cc2)c(C)c1 | 0.5
CCCN1C(=O)NC2(O)C(=O)c3ccccc3C12O (stereo unspecified) | 0.5
Cc1ccc(C(=O)c2cc([N+](=O)[O-])ccc2N2CCOCC2)c(C)c1 | 1.4
Cc1c(C(=O)Nc2ccc(Oc3ccccc3)cc2)sc2nc3n(c(=O)c12)CCC3 | 0.9
CC(C)NC(=O)c1ccccc1NC(=O)CN(c1ccc2c(c1)OCO2)S(C)(=O)=O | 0.7
Cc1ccc(-c2nn(-c3cc(Cl)ccc3[N+](=O)[O-])c(=O)c3ccccc23)cc1 | 0.3
CC(C)(C)C(=O)Nc1ccc(S(=O)(=O)c2ccc(NC(=O)C(C)(C)C)cc2)cc1 | 0.1
COc1cccc(CNS(=O)(=O)/C=C/c2ccc3c(c2)OCO3)c1 | i
CCN(CC)S(=O)(=O)c1ccc(S(=O)(=O)N2CCN(CCC#N)CC2)cc1 | 1.5
Cc1ccc(C(=O)CC2(O)C(=O)N(Cc3ccc4c(c3)OCO4)c3ccccc32)cc1 (stereo unspecified) | i
Cc1ccc(N(CC(=O)N2CCc3ccccc32)C2=NC(=O)CS2)cc1 | 0.0
Cc1occc1-c1nnc(SCC(=O)c2ccc(F)cc2)n1Cc1ccco1 | 1.9
CCc1ccc(OC)c(S(=O)(=O)Nc2ccccc2C)c1 | 1.6
CCOC(=O)CSc1nnc(-c2ccncc2)o1 | i
COCCN(CCOC)C(=O)c1cc2c(=O)n3ccccc3nc2s1 | 0.3
CC1CC(C)CN(c2ncnc3c2cnn3-c2ccc(Cl)cc2)C1 (stereo unspecified) | 4.5
COc1ccc([N+](=O)[O-])cc1NC(=S)NC(NC(=O)C(c1ccccc1)c1ccccc1)C(Cl)(Cl)Cl (stereo unspecified) | 1.5
CCOC(=O)C1CCCN(C(=O)CCC(=O)Nc2ccc3nc(N4CCOCC4)cc(C)c3c2)C1 (stereo unspecified) | 2.1
Cc1ccc(C)c2nc3sc(C(=O)N4CCCc5ccccc54)c(N)c3cc12 | i
COc1cc(NC(=O)Cn2c(C)cc3ccccc3c2=O)cc(OC)c1OC | i
CN1CCN(C(=O)c2cc3c(s2)-c2ccccc2S(=O)(=O)C3)CC1 | 1.5
CCC(CO)n1cnnc1-c1ccncc1 (stereo unspecified) | i
CCOC(=O)CSc1[nH]c(=O)cc(C)c1C#N | 0.5
COc1ccc(N2CCN(Cc3nc4c(c(=O)n(C)c(=O)n4C)n3CC(C)=O)CC2)cc1 | 2.4
O=C(CSc1nnc(CN2CCOCC2)n1-c1ccccc1)N1CCc2ccccc21 | 1.5
Cc1ccc(CSc2nnc(-c3ccco3)o2)cc1 | 0.4
CCOC(=O)N1CCN(C(=O)Nc2sc3nc4n(c(=O)c3c2C)CCC(C)CC4)CC1 (stereo unspecified) | i
COc1cccc(C2NC(=O)NC(C)=C2C(=O)Nc2ccccc2C)c1 (stereo unspecified) | i
O=C(CSc1nnnn1-c1ccc(Cl)cc1)NC(=O)Nc1ccc2c(c1)OCCO2 | i
CCOc1ccc2c3c(c(=O)oc2c1OCC)CCCC3 | 1.1
CC(C)NC(=O)CCS(=O)(=O)c1cccc2nonc12 | 0.2
CC(=O)c1cccc(NC(=O)N2CCCC2C(=O)NC2CCCCC2)c1 (stereo unspecified) | i
CCOC(=O)c1cc2sc(C)cc2n1CCCN1C(=O)c2ccccc2C1=O | 4.7
ON1C2CCCCC2N(O)C1c1ccccc1 (stereo unspecified) | i
CN1C(=O)C(Cc2c[nH]c3ccccc23)C(=O)N(C)C1=O | i
CCOc1ccc(-c2nnn(CC(=O)NCc3ccc(OC)cc3)n2)cc1OCC | 1.6
CCn1cc(Br)c(-c2nc3ccccc3c(=O)n2N)n1 | 0.9
COc1ccc(-c2cc(C(F)(F)F)nc(N3CCOCC3)n2)cc1OC | i
CC1(C)CC(=O)c2cc(C(=O)Nn3cnnc3)c(=O)n(-c3ccccc3)c2C1 | 0.6
O=C(NCCc1ccccc1)c1ccc2c(c1)N(Cc1ccccc1)C(=O)CS2=O (stereo unspecified) | i
O=C(Nc1cccc(O)c1)c1noc2c1CCc1ccccc1-2 | 67*
CCN1CCCC1CNC(=O)Cn1ncc2c(=O)oc3ccc(C)cc3c21 (stereo unspecified) | i
COc1ccc(C)cc1NC(=O)CN(C)S(=O)(=O)c1cnc[nH]1 | 0.7
CN(C)c1nc(N)nc(CSc2nnnn2C)n1 | 0.1

# Of the compounds above, these contain a COOH group.
Compound | H5N1 CPE
O=C(O)CCc1nnc2n(Cc3ccc(F)cc3)c(=O)c3ccccc3n12 | 1.7
O=C(O)c1ccc(N2CCCCCC2)c(N2C(=O)c3ccccc3C2=O)c1 | i
Cc1cc(C)c(S(=O)(=O)Nc2ccc(OCC(=O)O)cc2)c(C)c1 | 0.5

# Carrying on:
Compound | H5N1 CPE
C=CCC1(O)C(=O)Nc2ccccc21 (stereo unspecified) | i
COCCCNc1nc(=S)[nH]c2cc(OC)c(OC)cc12 | 0.6
CO/N=C(\Cn1ncc(N2CCCC2)c(Br)c1=O)c1ccc(Cl)cc1 | i
CC(Oc1ccccc1F)C(=O)/C=C/N(C)C (stereo unspecified) | 0.7
COc1ccc(C2C(=O)N(C3CCCCC3)CC(=O)N2C2CCCCC2)cc1 (stereo unspecified) | 0.8
NC(=O)CCS(=O)(=O)CCN1CCCCC1 | 1.5
CCOc1ccc(NC(=O)Cn2nnc(-c3ccccc3F)n2)cc1 | i
Brc1cccc(CN2CCCCCCC2)c1 | i
CCC(CC)C1C(C#N)=C(N)Oc2n[nH]c(C)c21 (stereo unspecified) | i
CC(C)OC(=O)CN1C(=O)S/C(=C/c2ccc(N3CCCCC3)o2)C1=O | i
OC12Oc3ccccc3C=C1N1CCC2CC1 (stereo unspecified) | i
O=C(NCCc1ccccc1)C(=O)NCC1(c2ccccc2)CCCC1 | 0.6
CC(C)CSc1nc2ccccc2n1CC(N)=O | 1.3
Cc1ccc(Oc2ncc(CN3CC(C)OC(C)C3)s2)cc1 (stereo unspecified) | 0.5
CCOCCc1nnc(NC(=O)CSc2ccccc2)s1 | 0.6
O=C(O)C1C2C=CC(C2)C1C(=O)N1CCc2ccccc21 (stereo unspecified) | i
COc1cccc(C2=NOC(C(=O)NCc3ccc(F)cc3)C2)c1 (stereo unspecified) | i
CC(C)c1ncc(C(O)c2cccc3ccccc23)n1C (stereo unspecified) | i
COCc1ccc(O)c2ncccc12 | i
CCOc1ccc(-n2c(O)c(C=NCCN(CC)CC)c(=O)[nH]c2=O)cc1 | 0.2
CCOc1ccc(CCNC(=O)CN2CCN(Cc3ccccc3F)C2=O)cc1OCC | i
CCOC(=O)c1ccc(NC(=S)NCCCN2CCCCC2)cc1 | i
CC1CN(C)C(C)CC1NCc1ccc2c(c1)OCO2 (stereo unspecified) | 4.3
Cc1ccc(C(=O)ONc2ccc(N=NC(=O)c3ccccc3O)cc2)cc1 | i
CCCCCCn1c(N2CCN(c3cccc(Cl)c3)CC2)nc2c1c(=O)[nH]c(=O)n2C | i
CN(CCNC(=O)c1cn(C)c2ccc(S(=O)(=O)N3CCCC3)cc2c1=O)CCc1ccccc1 | 0.8
CN(C)S(=O)(=O)c1ccc(C(=O)OCc2ccc(C#N)cc2)cc1 | 0.1
O=C(NCc1cccnc1)c1sc2cc(Cl)ccc2c1Cl | 0.0
O=C(C1CC1)N1CCc2cc(Br)cc(S(=O)(=O)N3CCOCC3)c21 | i
CN(C(=O)CCN1C(=O)C(C)(C)Nc2ccccc21)c1ccccc1 | i

# 3 entries from above, set out differently.
> O=C(NCc1cccnc1)c1sc2cc(Cl)ccc2c1Cl
  H5N1 CPE: 0.0

> O=C(C1CC1)N1CCc2cc(Br)cc(S(=O)(=O)N3CCOCC3)c21
  H5N1 CPE: i

> CN(C(=O)CCN1C(=O)C(C)(C)Nc2ccccc21)c1ccccc1
  H5N1 CPE: i

# The listing continues:
Compound | H5N1 CPE
O=C1CC(=C(c2ccccc2)c2ccccc2)C(=O)N1CCCCN1CCN(c2ccccc2)CC1 | 0.2
CCCN1CCN(CCCNC(=O)Cn2ncc3c4ccccc4n(C)c3c2=O)CC1 | 4.2
CC(NC(=O)C1CCCO1)c1ccccc1 (stereo unspecified) | 0.5
Cc1cccc(NC(=S)NC(=O)c2cccs2)n1 | i
COc1ccc2nc(C)cc(SCC(=O)NNC(=O)COc3ccc(C)cc3)c2c1 | i
COC(=O)C1=C(C)NC(=O)CC1c1ccccc1F (stereo unspecified) | i
COC(=O)c1cccc(NC2CC(=O)N(c3ccc(OC)c(OC)c3)C2=O)c1 (stereo unspecified) | i
CC(C)(O)C1=NOC(c2ccccc2)C1 (stereo unspecified) | 0.1
CCOc1ccc(C(=O)NCC(=O)OCC(=O)N2C(C)CCCC2C)cc1 (stereo unspecified) | i
COc1ccccc1OC(=O)c1ccc(SC)cc1OC | i
CC1CN(c2ccccc2)C(=O)CS1 (stereo unspecified) | i
O=C(CC1(O)C(=O)N(Cc2ccccc2Cl)c2ccccc21)c1ccco1 (stereo unspecified) | i
CC(=O)c1cccc(NC(=O)CSc2nnc(-c3ccc(S(=O)(=O)N4CCCC4)cc3)o2)c1 | 0.8
CCn1ncc(/C=C/C(=O)Nc2c(C)nn(CC)c2C)c1C | 1.9
COc1cc(OC)cc(C(=O)NCCOc2ccccc2)c1 | 0.1
O=C(/C=C/c1ccc([N+](=O)[O-])cc1)NCCSc1ccccc1 | i
O=C1c2ccccc2NC(c2ccccc2)N1c1ccc(O)cc1 (stereo unspecified) | 1.4
CCC(C)[C@H](NC(=O)N1CCN(c2cccc(C(F)(F)F)c2)CC1)C(=O)OC (stereo partly specified) | i
COc1ccccc1C(=O)NCCn1ccc2ccccc21 | 0.6
COc1cccc(Nc2nc3ccccc3n3cnnc23)c1 | 2.2
CC(=O)CSc1nnc(-c2cnccn2)n1-c1ccccc1 | i
Cc1cccc(OCCOC(=O)C2CCN(S(=O)(=O)c3cccs3)CC2)c1 | 0.1
COc1cc2c(cc1OC)C1=C(C#N)CC/C(=N\S(=O)(=O)c3ccccc3)N1CC2 | 0.8
COc1ccc2c(c1)Cc1sc(NC(=O)c3ccccc3)nc1-2 | i
CCC(=O)OCc1c(C(F)(F)F)nn(C)c1Oc1cccc(C(F)(F)F)c1 | 0.5
CC1=CC(C)C2C(=O)N(CCCN(C)C)C(=O)C2C1 (stereo unspecified) | 0.7
Cc1nc2ccccn2c1P(=S)(N1CCCCC1)N1CCCCC1 | 0.2
COc1ccc(CC(=O)Nc2ccc(S(=O)(=O)Nc3nc(C)cc(C)n3)cc2)cc1 | 2.0
CCCN(C(=O)c1cccs1)c1nnc(-c2ccncc2)s1 | 2.1
Cc1ccnc(Nc2nc3ccccc3o2)n1 | i
CCN(CC)C(=O)C(=O)c1cccn1-c1cccc(-n2cccc2C(=O)C(=O)N(CC)CC)c1C#N | 0.6
COc1ccc(CCn2c(O)c(C=NC3CC3)c(=O)[nH]c2=O)cc1OC | i
Cc1ccn2cc(CCNC(=O)C3CCCCC3)nc2c1 | 0.3
O=C(Nc1ccc(Cc2ccncc2)cc1)C1CC1 | 1.6
CC1=C(C(=O)Nc2ccccc2F)C(c2ccsc2)C2=C(CC(c3ccccc3)CC2=O)N1 (stereo unspecified) | 2.1
Nc1c(N)c2ccccc2oc1=O | i
COc1nonc1NC(=O)CSc1nc2ccccc2[nH]1 | i
CCn1c(SCC(=O)Nc2sc3c(c2C(N)=O)CCC(C)C3)nnc1-c1ccco1 (stereo unspecified) | i
CCN(CC)CCCNC(=O)c1cc(-c2cccc(Cl)c2)on1 | i
CC1(C)CC(=O)C2=C(C1)Nc1ccccc1NC2c1ccc2c(c1)OCO2 (stereo unspecified) | 0.7
CC1=CC(C)(C)N2C(=O)C3(C(C#N)=C(N)OC4=C3C(=O)CC(C)(C)C4)c3cccc1c32 (stereo unspecified) | i
Cc1cccc(NCCC(=O)c2ccc(Br)cc2)c1 | i

# Single entries from the entries so far:
# In H5N1 CPE, O=C(Nc1ccc(Cc2ccncc2)cc1)C1CC1 is listed with 1.6
# In H5N1 CPE, CC1(C)CC(=O)C2=C(C1)Nc1ccccc1NC2c1ccc2c(c1)OCO2 (stereo unspecified) is listed with 0.7
# In H5N1 CPE, CCN(CC)C(=O)C(=O)c1cccn1-c1cccc(-n2cccc2C(=O)C(=O)N(CC)CC)c1C#N is listed with 0.6

# An excerpt; the hit share may differ from the screen's.
